Screening data (PubChem BioAssay)
nsP2pro primary = Primary qHTS for inhibitors of NSP2Pro chikungunya virus (CHIKV); Polyprotein P1234 (Chikungunya virus (strain S27-African prototype)), Q8JUX6; FRET peptide cleavage, nsP2pro, fluorescence 1 h; Potency, µM (series often up to 24.9 µM), for inactives: at the top dose activity change, negative = inhibition, usual class: inhibitors; 31,000 compounds, 1.1% hits; AID 1964107, 2024; active means well fitted inhibition curve with a large enough effect; inconclusive means small, poorly fitted or top-dose-only effect; inactive means no such curve, though single readings can be large or run the other way; note: nearly all actives have a fitted effect of over 60% in size; a reference inhibitor and vehicle were the controls
Numbers without * were called inactive; i = inactive; ? = inconclusive; [ ] = remark or other dose. % is set by controls: 0 for no effect and ±100 for the full control effect; potency is the fitted concentration of half-maximal effect. This is a subset, so the mix of outcomes need not match the whole.

Compound	nsP2pro primary
CN[C@@H](C)C(=O)N[C@H]1CN(C(=O)CC(C)C)CC[C@H]2CC[C@@H](C(=O)NC(c3ccccc3)c3ccccc3)N2C1=O	1%
COc1ccc(OC)c(NC(=O)CCNS(=O)(=O)c2cccc3nsnc23)c1	-24%
Cc1cc2c(s1)c1cnn(Cc3ccc(F)c(F)c3)c(=O)c1n2C	4%
CC(=O)Nc1cccc(C(=O)N2CCC3(CC2)N=C(c2ccc(C)cc2)NO3)c1	i
Clc1ccccc1-c1ccc2ncnc(NCc3cccnc3)c2c1	i
N#Cc1nn(-c2c(Cl)cc(C(F)(F)F)cc2Cl)c(N)c1S(=O)C(F)(F)F (configuration not stated)	-5%
Cc1cc(NS(=O)(=O)Cc2ccc(NC(=O)Cc3ccc(Cl)c(Cl)c3)cc2)no1	i
COc1ccc(-c2cc(C(=O)N3CCOC(c4ccc(F)cc4)C3)[nH]n2)cc1 (configuration not stated)	i
COc1ccc(Cl)cc1NC(=O)Cn1c(=O)n(Cc2ccco2)c(=O)c2ccc(C(=O)NC3CCCC3)cc21	-22%
Cc1ccc(CNC(=O)Cn2c(=O)cc(C(F)(F)F)c3c(C)nn(C)c32)cc1	-31%

Next results follow:
Compound	nsP2pro primary
CCOC(=O)c1ccc(NC(=O)c2oc(=O)c3ccccc3c2-c2ccccc2)cc1	-21%
Nc1ncnc2c([C@@H]3N[C@H](CO)[C@@H](O)[C@H]3O)c[nH]c12	-6%
Cc1ccc(C(=O)N2CCC3(CC2)N=C(c2cccc(Br)c2)NO3)s1	4%
N#Cc1ccccc1-c1csc(N2CCC(C(N)=O)CC2)n1	0%
O=C(Cc1ccccc1F)Nc1cnc(-c2cccnc2)nc1	i
CCCn1c(=O)sc2cc(NC(=O)COc3ccc(Cl)cc3)ccc21	-8%
COCCn1c(C(=O)OC)c(NC(=O)CC(C)C)c2cc(NC(C)CCn3cccn3)cnc21 (configuration not stated)	i
O=C(CSc1nnc(-c2cccs2)o1)Oc1ccccc1Cl	-22%
COc1ccc(CC(=O)N[C@H]2[C@H](O)[C@H](O)C[C@@H]2c2ccccc2)cc1	1%[39.2 µM]
O=C(Nc1ccc(Cl)cc1F)c1cc(S(=O)(=O)NC2CCCCCC2)ccc1F	-7%

(further entries)
Compound	nsP2pro primary
O=C(O)c1ccc(CSc2nnc(-c3cccc([S+](=O)([O-])NC4CCCC4)c3)n2-c2ccccc2)cc1	0%
O=C(NCc1ccc2c(c1)CCN2C(=O)c1ccncc1)c1ccccc1F	-23%
O=S(=O)(Nc1cnc2ccccc2c1)c1ccc(NCc2cccc(Cl)c2O)cc1	-4%
CCc1nc2c(c(-c3ccc(O)cc3)n1)CN(Cc1ccc(NC(C)=O)cc1)CC2	-28%
Cc1ccnc(NC(=S)N2CCNCC2)c1	3%
Cc1ccc(-c2nnc3ccc(-c4ccoc4)nn23)nc1	-15%[39.2 µM]
COc1ccc(S(=O)(=O)c2c(O)c3ccc(C(=O)Nc4ccccc4)cc3[nH]c2=O)cc1	3%
O=C(O)c1ccc(-c2ccc3ncnc(N4CCOCC4)c3c2)o1	0%
O=C(CSc1nnc(-c2cccc(S(=O)(=O)N3CCCC3)c2)n1-c1ccccc1)Nc1ccc(C(=O)O)cc1	3%
COC(=O)c1cc2n(n1)CCCN(C(=O)COc1ccc(C)c(C)c1)C2	2%

Later entries
Compound	nsP2pro primary
Cc1ccc(NC(=O)c2ccc(-c3nc4ccccc4[nH]3)cc2)cc1Br	-3%
Cc1ccc(C)c(S(=O)(=O)NCCc2csc(-c3ccc(Cl)cc3)n2)c1	-13%
CC(=O)O[C@H]1C[C@@H](O)C(C)(C)C2C[C@@H](OC(C)=O)[C@]3(C)C(CC[C@@]4(C)[C@H](c5ccoc5)OC(=O)[C@H]5O[C@]543)[C@]21C (some centres not stated)	-25%[10 µM]
Cc1ccccc1-n1c(=O)c2c3c(sc2n2cnnc12)CCCC3	-9%
COc1cc(NS(=O)(=O)c2ccc(C)cc2)c2ncccc2c1	i
CCOc1ccc(S(=O)(=O)n2nc(C)c(S(=O)(=O)N3CCCCC3)c2C)cc1	?
O=C(CCCN1CCC(n2c(=O)[nH]c3ccccc32)CC1)c1ccc(F)cc1	0%
CO[C@H]1/C=C\O[C@@]2(C)Oc3c(C)c(O)c4c(O)c(c5c(c4c3C2=O)=NC2(CCN(CC(C)C)CC2)N=5)NC(=O)/C(C)=C\C=C/[C@H](C)[C@H](O)[C@@H](C)[C@@H](O)[C@@H](C)[C@H](OC(C)=O)[C@@H]1C	15%
Cc1ccc(Cn2c(CN3CCC(C(=O)NCc4cccnc4)CC3)cc3ccccc32)cc1	27%
Cc1ccc(NC(=O)CSc2nc(=O)cc(N)n2-c2ccccc2)cc1	-10%

Next structures:
Compound	nsP2pro primary
COc1ccccc1NC(=O)C(OC(=O)CNC(=O)c1ccccc1)c1ccccc1 (configuration not stated)	i
Cc1ccc(OCCn2c(CCNC(=O)c3cc(N)ccc3N)nc3ccccc32)cc1	-1%
COc1cccc(C2=C(C(C)=O)Sc3nncn3N2C(C)=O)c1	?
CC1CCN(C(=O)Cn2c(=O)oc3cc(S(=O)(=O)N4CCCCC4)ccc32)CC1	-18%
Cc1noc([C@@H]2CN(Cc3cccnc3)C[C@H]2CO)n1	-10%
O=C(Cn1nc(Cc2cccnc2)c2ccccc2c1=O)Nc1cccc(C(F)(F)F)c1	0%
CCOC(=O)c1ccc(N2C(=O)c3[nH]nc(-c4ccc(OC)cc4)c3C2c2cccc(O)c2)cc1 (configuration not stated)	-29%
CC(=O)Oc1ccccc1C(=O)Nc1ncc([N+](=O)[O-])s1	61%[activator]
CCN(CC)c1ccc2nc3c(=O)n(C)c(=O)n(C)c3nc2c1	60%[activator]
C=Cc1cc(F)c(S(=O)(=O)N2CCN(S(=O)(=O)c3ccc4c(c3)OCCO4)CC2)cc1F	1%

Following part.
Compound	nsP2pro primary
O=C(O)c1ccc(-c2noc(-c3ccc(Cl)cc3)n2)cc1	i
O=C(c1ccc(C(F)(F)F)cc1)N1CCC2(COc3ccncc3[S+](=O)([O-])N2)C1 (configuration not stated)	-5%
c1c2c(cc3c1OCO3)-c1cc3ccc4c(c3c[n+]1CC2)OCO4	?
CCC(C(=O)N1CCc2onc(-c3ccc(F)c(F)c3)c2C1)n1cccn1 (configuration not stated)	1%
O=C(Cc1ccccc1)Nc1nnc(CCSCCc2nnc(NC(=O)Cc3ccccc3)s2)s1	-4%
CC(=O)OCC(=O)[C@@]1(O)CC[C@H]2[C@@H]3CCC4=CC(=O)CC[C@]4(C)[C@H]3C(=O)C[C@@]21C	-12%
O=C(CN1C(=O)COc2ccc(S(=O)(=O)N3CCOCC3)cc21)N1CCN(c2ccc(F)cc2)CC1	-7%
CCCCC(=O)O[C@]1(C(=O)COC(C)=O)CC[C@H]2[C@@H]3CCC4=CC(=O)C=C[C@]4(C)[C@H]3[C@@H](O)C[C@@]21C	3%
O=C(NCCCc1ccccc1)C1CCN(c2cc(C(F)(F)F)ncn2)CC1	i
CC(C)[C@@H](N)C(=O)O	-14%

Further records follow.
Compound	nsP2pro primary
O=C(c1ccccc1)N1CCC2(CC1)C(=O)NN=C2C1CC1	2%[39.2 µM]
O=C(NC1CCCC1)c1ccc2c(c1)N(Cc1c(F)cccc1Cl)C(=O)c1ccccc1S2	-16%
Cc1nn(CCCC(=O)NCCc2ccc(Cl)cc2)c(=O)c2nn(-c3ccccc3)c(C)c12	-12%
Cc1nc2ccn(Cc3cccs3)c(=O)c2cc1C(=O)N1CCN(c2ccc(F)cc2)CC1	-11%
Cc1ccccc1Nc1c(-c2cccc(N(C)C)c2)nc2ccc(Br)cn12	-18%
C=C1C(OC(C)=O)[C@@]23CCC4[C@](C)(C(=O)O)CCC[C@@]4(C)[C@]2(O)CC[C@H]1C3 (some centres not stated)	6%
O=S(=O)(Cc1noc([C@@H]2C[C@@H](O)CN2CC2CC2)n1)c1ccc(F)cc1	-13%[39.2 µM]
O=c1[nH]/c(=C\c2ccc([N+](=O)[O-])cc2)c(=O)[nH]/c1=C\c1ccc([N+](=O)[O-])cc1	1%
COc1cc(OC)c(NC(=O)c2cnc(N3CCCC3)nc2C)cc1Cl	-20%
CC(=O)Nc1ccc(C(=O)Nc2ccccc2N)cc1	?

Remaining list, next part.
Compound	nsP2pro primary
Cc1ccc(Cn2c(CN3CCC(C(=O)NCCc4ccccc4)CC3)cc3ccccc32)cc1	152%[activator]
COc1ccc(-c2nc3scc(CCNS(=O)(=O)c4c(C)noc4C)n3n2)cc1OC	-17%
O=C(O)c1cc(O)c2cccc(O)c2c1O[C@@H]1O[C@H](CO)[C@@H](O)[C@H](O)[C@H]1O	15%
CCCCc1nc2ccccc2n1CC(=O)N(COCC)c1c(C)cccc1CC	-4%
Cc1coc2c(C)c3oc(=O)c(CC(=O)N4CCCCC4)c(C)c3cc12	-16%
CCOC(=O)c1c(C)[nH]c(C)c1S(=O)(=O)N1CCC(C(=O)NCc2ccc(N(C)C)cc2)CC1	-11%
CCCCN(CCCC)CCNC(=O)Cn1nc(C)n2c(cc3sccc32)c1=O	-11%
COc1cccc(-c2nc(-c3cccc(C(=O)O)c3)no2)c1	i
CC(C)=C(C#N)C(=O)N1CCCN(c2cc(NCCC(=O)O)nc(-c3ccccn3)n2)CC1	85%[activator]
Cc1cccc(N2CCN(C(c3ccc(F)cc3)c3nnc(-c4ccccc4)o3)CC2)c1C (configuration not stated)	58%[activator]

Further entries follow.
Compound	nsP2pro primary
Oc1ccc(CNc2ccccc2F)c2cccnc12	3.1µM*
COc1ccc(CN[C@H]2[C@H](O)[C@@H](N(C)CCc3ccccn3)[C@@H]3OC[C@H]2O3)cc1	5%[39.2 µM]
CCc1ccc(-c2ccc3nnc(SCC(=O)Nc4cccc(C(C)=O)c4)n3n2)cc1	-18%
COc1ccc(S(=O)(=O)NC2CCN(C#N)CC2)cc1	-7%
COc1cc(O)c(C(CC(=O)N2CCCC2)c2ccc3c(c2)OCO3)c(OC)c1 (configuration not stated)	i
CCCn1c(C)nc2c(NC3CCCCC3)nc(C)nc21	-9%
N[C@H]1C(O)O[C@H](CO)[C@@H](O)[C@@H]1O (some centres not stated)	-4%
O=C(Nc1ccc(OCc2cc(=O)n3c4c(sc3n2)CCCC4)cc1)c1ccc(F)cc1	-25%
COc1ccc(C2=Nn3c(nnc3-c3ccccc3F)SC2)cc1OC1CCOC1 (configuration not stated)	-1%
O=C(Nc1ccc(OC(F)(F)Cl)cc1)c1cnc(N2CC[C@@H](O)C2)c(-c2ccn[nH]2)c1	45%[activator]

A second format for part of the listing above.
CCc1ccc(-c2ccc3nnc(SCC(=O)Nc4cccc(C(C)=O)c4)n3n2)cc1
- nsP2pro primary: -18%

N[C@H]1C(O)O[C@H](CO)[C@@H](O)[C@@H]1O (some centres not stated)
- nsP2pro primary: -4%

CCCn1c(C)nc2c(NC3CCCCC3)nc(C)nc21
- nsP2pro primary: -9%

Continued.
Compound	nsP2pro primary
COc1ccc(OC)c(CCNC(=O)CCn2c(=O)c3cccn3c3cccnc32)c1	-22%
CCN(CC)S(=O)(=O)c1ccc2[nH]cc(C(=O)NCCc3ccccc3)c(=O)c2c1	-20%
O=C(O)c1cccnc1	?
COc1ccccc1C(=O)OCC#CCSc1nnc(-c2cccc3ccccc23)o1	-4%
Cc1noc(C)c1-c1ccc2ncnc(NCC3CCCCN3C)c2c1 (configuration not stated)	5%
Cc1cc(C)cc(NC(=O)C2CCN(S(=O)(=O)c3c(C)noc3/C=C/c3ccco3)CC2)c1	?
O=S(=O)(c1ccc(O)c2ncccc12)N1CCCCC1	i
Cc1ccc([N+](=O)[O-])cc1S(=O)(=O)N1CCn2cccc2C1c1ccccc1F (configuration not stated)	-12%
CC(C)c1ccc(NS(=O)(=O)c2ccc3[nH]cc(C(=O)NC4CCCCC4)c(=O)c3c2)cc1	11%
O=C1c2cnc(-c3ccsc3)nc2OCCN1CC1CC1	-5%[39.2 µM]

More structures.
Compound	nsP2pro primary
CN[C@H](CC(C)C)C(=O)N[C@H]1C(=O)N[C@@H](CC(N)=O)C(=O)N[C@H]2C(=O)N[C@H]3C(=O)N[C@H](C(=O)N[C@H](C(=O)O)c4cc(O)cc(O)c4-c4cc3ccc4O)[C@H](O)c3ccc(c(Cl)c3)Oc3cc2cc(c3O[C@@H]2O[C@H](CO)[C@@H](O)[C@H](O)[C@H]2O[C@H]2C[C@](C)(N)[C@H](O)[C@H](C)O2)Oc2ccc(cc2Cl)[C@H]1O	17%[10 µM]
O=S(=O)(Nc1nc(-c2ccccc2C(F)(F)F)nc2ccccc12)c1ccc(Br)cc1	i
O=C(Cn1ccn2nc3c(c2c1=O)CCCCC3)NCc1ccccc1Cl	-7%
Cc1cc(=O)oc2cc(SC3=NS(=O)(=O)c4ccccc43)ccc12	0%
CCSc1ncc(Cl)c(C(=O)N(Cc2ccccc2)c2ccc(OC)cc2)n1	-14%
Cc1c(Nc2ncccc2C(=O)O)cccc1C(F)(F)F	-2%
CC#CC(=O)N1CC[C@@H](n2c(=O)n(-c3ccc(Oc4ccccc4)cc3)c3c(N)ncnc32)C1	-2%
Cc1ccc(SCC(=O)Nc2ccc3oc(-c4ccccc4C)nc3c2)cc1	-7%
O=C(Nc1cc(Cl)cc(Cl)c1)c1ccc2c(c1)N(Cc1cccc(Cl)c1)C(=O)c1ccccc1S2=O (configuration not stated)	-10%
Cc1ccc2nc3c(cc(C#N)c(=O)n3-c3nnc(SCc4ccccc4)s3)c(=O)n2c1	5%
